# Screens as filed in PubChem.
# ClpP mod = qHTS Assay for Activators of ClpP; 340,000 tested, 1.9% active; purified B. subtilis ClpP, FRET peptide cleavage, 20 min; Potency, µM (titrated, usually from 57.5 µM), inactives show at the top dose activity change, negative = active; ATP-dependent Clp protease proteolytic subunit (Bacillus subtilis (strain 168)), P80244; active = well fitted falling curve with a large enough effect; inconclusive = small, poorly fitted or top-dose-only effect; inactive = no such curve, though single readings can be large or run the other way; also: potency is read from the fitted curve at half-maximal effect; the source files actives as falling curves though it sought activators and does not explain the sign; nearly all actives have a fitted effect of over 65% in size; many hits overshoot -100%
#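 ClpP 10 microg/mL final, pH 8 Tris/KCl buffer with BSA, glycerol, Tween-20; compound pinned in; FRET-FV substrate; RT 20 min; Ex320/Em430; ΔFRET vs ADEP 5.8 microM, DMSO, no enzyme.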
# gsp ag = qHTS for Agonist of gsp, the Etiologic Mutation Responsible for Fibrous Dysplasia/McCune-Albright Syndrome: qHTS; gsp mutant cells, cAMP HTRF, 30 min; control for the full effect not named in the record; AID 624287, 2012; 340,000 tested, 0.13% active; Potency, µM (series often up to 76.9 µM), for inactives: at the top dose activation (cAMP increase), hits mostly activators; active = well fitted activation curve with a large enough effect; inconclusive = small, poorly fitted or top-dose-only effect, or another doubt; inactive = no such curve, though single readings can be large or run the other way; cell line not stated here;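 also: phosphodiesterase inhibitor Ro 20-1724 added with compounds to block cAMP breakdown; potency is read from the fitted curve at half-maximal effect; nearly all actives have a fitted effect of over 60% in size; about a fifth of the inactives were tested at one dose only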
#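 Cells in DMEM/10% FBS with G418 were pretreated with compounds in DMSO plus […] (300 uM stock) for 30 min at 37C. cAMP was measured by HTRF (cAMP-d2 plus anti-cAMP antibody-K) after 30 min at room temperature.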
# Sfp inh = qHTS Assay for Inhibitors of Bacillus subtilis Sfp phosphopantetheinyl transferase (PPTase) | Biochemical Sfp PPTase activity, qHTS | AID 1490, 2009 | 310,000 tested, 3.5% active | Potency, µM, for inactives: max response, negative = inhibition, actives largely listed as inhibitors; active = well fitted inhibition curve with a large enough effect; inconclusive = small, poorly fitted or top-dose-only effect, or another doubt; inactive = no such curve, though single readings can be large or run the other way;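 also: the enzyme is Sfp with the accession as filed and its product quenches rhodamine fluorescence; potency is read from the fitted curve at half-maximal effect; 0% = enzyme reaction without inhibitor and -100% = no enzyme wells; top concentration of the series not given in the record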
#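 Step 1, compound plus 15 nM Sfp-PPTase, 15 min, room temperature. Step 2, add rhodamine-CoA (5 uM) and BHQ-2-YbbR (12.5 uM). Step 3, read 525/598 nm fluorescence at 0 and 30 min.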
# Menin MLL FP FL = qHTS Assay for Inhibitors Targeting the Menin-MLL Interaction in MLL Related Leukemias: Competition With Fluorescein Labeled MLL-derived Peptide | Fluorescence polarization, fluorescein-MLL peptide displacement from menin | FP activity change, % at 61.4 µM | 290,000 tested, under 10 active | AID 1766, 2009; inconclusive = falling polarisation curve, or a change in total fluorescence; inactive = total fluorescence flat and polarisation flat or rising; no compound was filed as active; the % refers to the polarisation; negative = inhibition;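 also: % of control where 0% means no effect; inhibitors lower the polarisation; unlabelled MLL peptide was the positive control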
# TRPV1 PAM = HTS Assay for Compounds that Act as Potentiators of the Vanilloid Receptor 1; Transient receptor potential cation channel subfamily V member 1 (Homo sapiens), Q8NER1; TRPV1-expressing cells, Fluo-8 calcium influx, capsaicin EC20 potentiation; host cell line not named in the record; control for the full effect not named in the record; potentiation, % at 8.33 µM; 320,000 tested, 0.02% active; active means potentiation above 80%; inconclusive means 30% to 80%; inactive means below 30%; also: 0% is about no effect
# Target sequence (Q8NER1 whole entry, looked up): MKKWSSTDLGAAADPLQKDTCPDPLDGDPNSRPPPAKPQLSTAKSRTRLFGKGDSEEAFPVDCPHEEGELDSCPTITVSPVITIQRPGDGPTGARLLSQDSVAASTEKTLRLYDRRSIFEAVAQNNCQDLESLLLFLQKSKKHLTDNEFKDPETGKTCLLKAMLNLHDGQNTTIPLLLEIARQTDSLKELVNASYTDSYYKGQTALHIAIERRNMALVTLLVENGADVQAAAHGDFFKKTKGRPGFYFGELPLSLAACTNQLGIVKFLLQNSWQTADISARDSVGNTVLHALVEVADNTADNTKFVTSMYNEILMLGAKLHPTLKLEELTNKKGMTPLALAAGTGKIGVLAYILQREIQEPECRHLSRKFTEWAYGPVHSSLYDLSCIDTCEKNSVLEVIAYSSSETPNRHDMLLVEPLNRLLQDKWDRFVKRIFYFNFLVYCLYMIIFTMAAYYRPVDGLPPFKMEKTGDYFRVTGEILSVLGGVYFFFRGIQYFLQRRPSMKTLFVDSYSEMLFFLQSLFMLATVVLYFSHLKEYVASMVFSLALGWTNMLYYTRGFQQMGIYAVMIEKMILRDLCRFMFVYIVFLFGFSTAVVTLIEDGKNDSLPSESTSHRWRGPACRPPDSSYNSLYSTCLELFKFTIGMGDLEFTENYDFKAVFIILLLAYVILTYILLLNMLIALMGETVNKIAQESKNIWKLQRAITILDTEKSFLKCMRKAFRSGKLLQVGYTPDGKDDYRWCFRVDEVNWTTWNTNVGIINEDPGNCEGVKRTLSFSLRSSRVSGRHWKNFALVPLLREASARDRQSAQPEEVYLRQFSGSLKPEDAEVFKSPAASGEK
#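 Fluo-8 calcium influx in TRPV1-expressing cells, kinetic read (ex 480/em 520 nm). Compound added and read 3 min for agonist activity, followed by capsaicin at EC20 final and 2 min further read for enhancement.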
# CtBP-E1A inh = qHTS Assay for Inhibitors of the CtBP/E1A Interaction | CtBP / adenovirus E1A interaction (AlphaScreen) | AlphaScreen GST-E1A/His-CtBP binding, 1536-well; hits give low values; control for the full effect not named in the record | 340,000 tested, 0.49% active | activity change, % (no concentration beside the values); in the data active means activity change below about -65%; inconclusive means about -30% to -65%; inactive means above about -30%; also: % is scaled to controls: 0 for no effect and ±100 for the full control effect; compound concentration not given in the record
#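 Homogeneous bead-based format: GST-tagged E1A captured on glutathione donor beads, His-tagged CtBP on nickel acceptor beads; compounds precede bead addition by 2 h at 37 °C.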
# gsp antag = qHTS for Antagonists of gsp, the Etiologic Mutation Responsible for Fibrous Dysplasia/McCune-Albright Syndrome: qHTS. gsp-mutant cells, cAMP HTRF, 30 min; control for the full effect not named in the record. Potency, µM (titrated, usually from 76.9 µM), for inactives: at the highest dose activity change, negative = inhibition, most hits filed as inhibitors. 340,000 tested, 0.4% active; active = falling curve of any shape with a large fitted effect; inconclusive = falling curve, mostly with a smaller effect; inactive = flat or rising curve; cell line not stated here;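 also: intracellular cAMP measured with PDE inhibitor Ro 20-1724 present during compound exposure; potency is read from the fitted curve at half-maximal effect; % is scaled to controls: 0 for no effect and ±100 for the full control effect; nearly all actives have a fitted effect of over 65% in size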
#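 HTRF cAMP read-out (cAMP-d2 plus anti-cAMP antibody-K in lysis buffer, 30 min RT). Before lysis, cells are exposed to compounds with […] for 30 min at 37C in DPBS containing Ca/Mg, BSA and Tween 20.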
# * = called active by the depositor; u = inconclusive; x = not tested or not shown; & = joins results of further samples; ! = repeats disagree; [ ] = dose if it differs, or a comment.
# Value order: ClpP mod, Menin MLL FP FL, TRPV1 PAM, gsp ag, Sfp inh, CtBP-E1A inh, gsp antag
COc1ccccc1C(=O)CN1C(=O)NC2(CCCc3ccccc32)C1=O (stereo not given)
  x, x, x, -12%, x, -10, -3%
O=C1C2CCCN2C(=S)N1c1ccccc1 (stereo not given)
  -1.3%, 0.9, -12, 12%[15.4 µM], -7%, 3, 5%
CCOC(=O)C1=C(C)N(CCCCCC(=O)O)C(=O)NC1c1ccccc1OC(=O)c1cccs1 (stereo not given)
  0.7%, 0.6, 21, x, -6%, 4, -9%
Cn1c(-c2ccc(Br)o2)nc2ccccc21
  -7.9%&-6.3%, -7.1, 27, -32%[inhibitor], 40µM*, -1, -4%[15.4 µM]
CCCC(=O)Nc1ccc2c(c1)c1ccccc1n2CC
  u, 5.1, 0, 2%, 4%, 5, -2%
O=C(Cn1cnc2c(nnn2Cc2ccc(Cl)cc2)c1=O)NC1CCCC1
  -1.4%, 0.0, 3, 2%, 24%, 7, 0%
Cc1ccc(NS(=O)(=O)c2ccc(OCC(N)=O)cc2)cc1
  x, -7.4, 4, -2%, 14%, 9, 6%
COCCCNC(=O)CSc1nc2cc(C(=O)NCCOC)ccc2c(=O)n1Cc1ccc2c(c1)OCO2
  -0.2%, -2.8, 4, 8%, 10%, x, -18%
CCOC(=O)c1[nH]c(C)c(C(=O)NCc2ccco2)c1C
  0.1%, 1.4, 9, -102%[inhibitor], 3%, -2, 4%
O=C(CCN1CCOCC1)NC12CC3CC(CC(C3)C1)C2
  2.1%, -8.6, 10, 6%, 5%, x, 6%
O=C(NCc1cccs1)C1CCN(S(=O)(=O)c2cccc3cccnc23)CC1
  2.3%, 1.2, x, -31%[inhibitor], 15%, 7, 3%
Cc1ccc(CC(=O)Nc2nnc(-c3ccc(F)cc3)o2)c(C)c1
  -1.5%, -3.1, -1, 23%, 16%, x, 6%
COc1cccc(NC(=O)Nc2c(C)n(C)n(-c3ccccc3)c2=O)c1
  0.0%, -1.5, 0, -40%[inhibitor], 18%, -3, 20%
Cc1cccc(C)c1-n1nnnc1SCSc1nnnn1-c1c(C)cccc1C
  0.2%, 5.1, 14, 12%, 22%, 5, -8%
COc1ccc(N2C(=O)c3ccccc3NC2c2ccc(OC)c(COc3ccccn3)c2)cc1 (stereo not given)
  25µM*!, 3.0, -1, 1%[15.4 µM], 2%, -3, -5%
CCCCNC(=O)C(C#N)c1nc2ccccc2nc1N1CCCC1 (stereo not given)
  x, u, 11, x, 20%, x, x
COc1ccc(CCNC(=O)COC(=O)c2ccco2)cc1OC
  -1.2%, 0.2, 3, 16%, 1%, 1, 5%
O=C(N/N=C/c1ccc(Sc2ccccn2)o1)c1cc2ccccc2cc1O
  0.4%, 6.1, 10, -15%, -1%, -26, -12%
COC(=O)C1CCN(C(=O)CSc2ccccc2)CC1
  -1.8%, 4.8, 1, 9%, 9%, 6, 6%
O=C1c2ccccc2C(=O)N1Nc1ccccc1
  -3.3%, 3.1, x, -22%, 2%, -3, -1%
COCC(C)n1c(SCC(=O)Nc2sccc2C(N)=O)nc2ccccc2c1=O (stereo not given)
  -0.5%, x, 2, 12%, x, -2, 8%
NC(=O)C1=C[C@H](c2coc3ccccc3c2=O)C[C@H](OCCCCO)O1
  -1.0%, -4.5, 1, x, 7%, 5, 4%
Cc1cc(C(=O)N/N=C2\CC(=O)c3ccccc32)c(C)n1-c1ccccc1
  x, 13, -10, u, 17%, -25, -14%
CCOc1nc(Nc2ccc([N+](=O)[O-])cc2)nc(NC(C)(C)C)n1
  4.5%, 1.5, -1, 0%[15.4 µM], 6%, -1, 0%
Cc1nn(C)c(C)c1CN(C)S(=O)(=O)c1ccc2ccccc2c1
  -4.3%, -1.0, 3, 9%, 10%, -5, 14µM*
Cc1cccc(NC(=O)C(=O)N/N=C/c2ccncc2)c1
  x, 1.0, -12, -41%[inhibitor], 4%, 0, -2%
COc1ccc(NC(=O)Nc2cc(C(=O)O)ccc2N2CC3CC(C2)c2cccc(=O)n2C3)c(OC)c1 (stereo not given)
  x, -4.0, 16, 1%, 9%, 6, -4%
CNS(=O)(=O)c1cccc(C(=O)OCC(=O)NC(C)CCc2ccccc2)c1 (stereo not given)
  0.8%, -0.8, -34, -5%, 8%, x, -5%
COc1ccc(NC(=O)CCc2ccccc2)cc1NC(=O)c1ccco1
  -1.4%, -0.9, 6, -18%, -8%, 6, -9%
COc1cccc(N/C=C/C(=O)c2ccc(OC)c(OC)c2)c1
  -7.7%, 2.8, -10, u, -7%, x, -13%
COc1cc(/C=N/NC(N)=O)ccc1OC(=O)c1cccs1
  x, -4.7, 2, 25%, 5%, 1, -5%
CCCCCOc1ccc(C(=O)CCC(=O)Nc2ccc(NC(C)=O)cc2)cc1
  0.7%, 14, -12, 7%, 24%, x, 3%
CCc1ccc(NC(=O)N(Cc2ccco2)C(C)c2cccs2)cc1 (stereo not given)
  -2.7%, -1.2, -2, -1%, 9%, -3, -12%
NC(=O)c1cc(S(=O)(=O)NCCc2ccccc2)cs1
  0.9%, -5.7, 3, -2%, 4%, x, 4%
Cc1c(/C=N\NC(=O)C2(C)CC2(Cl)Cl)cnn1C (stereo not given)
  -2.0%, 0.0, 2, -18%, 6%, 13, 6%
Cc1cccc(-c2n[nH]c(=S)n2-c2ccccc2)c1[N+](=O)[O-]
  1.1%, 0.1, 1, 25%, 2%, -8, -2%
O=C(CN1CCN(c2ccc(O)cc2)CC1)Nc1cc(S(=O)(=O)N2CCOCC2)ccc1Cl
  2.4%, -15, 10, -21%, 79µM*, -12, -9%
Cc1ccc(SCCC(=O)OCC(=O)Nc2ncc(Cl)cc2Cl)cc1
  -8.5%, 2.0, 25, 17%, -5%, 3, 1%
Cc1cc(C)c(NC(=O)C2c3ccccc3Oc3ccccc32)c(C)c1
  -3.1%, -1.1, 6, -4%[15.4 µM], 0%, 12, 12%
COc1ccc(-c2csc3nc(C)nc(N4CCC(C)CC4)c23)cc1OC
  0.9%, -5.5, -6, -12%[15.4 µM], -4%, -22, -17%
CC(C(=O)N1CCOCC1)c1ccccc1 (stereo not given)
  1.2%, x, 0, x, x, 2, 9%
O=C(NCc1cccnc1)c1cc2ccccc2oc1=O
  u, 1.2, -13, 30%, -10%, 1, 9%
COc1ccc(CCNC(=O)c2cc(CC(C)C)on2)cc1OC
  1.9%, 3.4, x, -18%, 6%, 2, -1%
COc1ccc(N(CC(=O)Nc2cc(C)ccc2C)S(=O)(=O)c2ccccc2[N+](=O)[O-])c(OC)c1
  x, 5.5, 0, 2%[15.4 µM], -23%, -9, -15%
Cc1ccc2[nH]cc(C(=O)CN3CCN(c4ccccc4F)CC3)c2c1
  -2.4%, 0.7, -4, u, 2%, -2, 1%
c1ccc2sc(Sc3ncnc4sccc34)nc2c1
  x, 7.7, -32, 5%, -25%, 6, -3%
O=C(CSc1nc2[nH]c(=O)cc(O)c2s1)Nc1ccc(Br)cc1
  -2.2%, x, -5, 19%, x, 6, 2%
COc1ccccc1N=c1scc(-c2ccc3c(c2)NC(=O)CO3)n1CC1CCCO1 (stereo not given)
  -0.7%, 1.4, -20, -4%, -3%, -4, -12%
O=C(NCCc1ccccc1F)C1CCC(=O)N(Cc2ccccc2F)C1 (stereo not given)
  0.1%, x, 11, 5%, 3%, 1, 13%
CSc1nnc(-c2ccc([N+](=O)[O-])cc2)o1
  x, -6.9, -1, -5%[15.4 µM], 5%, -23, 13%
COc1cc(OC)cc(C(=O)NC(c2ccccc2)c2ccccc2)c1
  -2.9%, 0.7, -5, -23%, 28%, x, 0%
Cc1ccc(N(C(=O)CNC(=O)c2ccco2)C(C(=O)NC2CCCCC2)c2ccncc2)cc1F (stereo not given)
  x, -4.5, 19, -49%[15.4 µM], 18%, 4, 3%
Cc1ccc(S(=O)(=O)NCC(=O)N(CC(=O)NCC2CCCO2)Cc2ccco2)cc1 (stereo not given)
  x, u, 15, 22%, -9%, 8, -3%
O=C(CN1CCCc2ccccc21)NCCc1ccc(F)cc1
  x, 5.4, -1, -20%[15.4 µM], 79µM*, -6, -7%
CC(Sc1cnc2ccccc2n1)C(=O)O (stereo not given)
  -2.8%, 2.8, 12, u, -3%, 5, 19%
COc1ccc(S(=O)(=O)N2CCCCCC2)cc1C(=O)N(CC(C)C)C1CCS(=O)(=O)C1 (stereo not given)
  x, x, 3, 17%[15.4 µM], x, 9, -7%
